# NOMO-1 viab: STK33 inhibitor candidate reducing NOMO-1 cell viability. inhibition, % (test concentration not listed). AID 2330. 37,000 compounds, 7.5% hits. NOMO-1 AML viability, CellTiter-Glo luminescence, 72 h;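 active means most replicates above 80%; inconclusive means exactly half above 80%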;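 further: wells of about 30 µL received 25 nL stock; 0% = median of vehicle wells and 100% = reference inhibitor level; the first replicate is given; inactives centre near 10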
# * hit, by the source's call; ? = inconclusive. Some of the compounds tested; rates above refer to the full screens.
SMILES,NOMO-1 viab
CNc1nc(SCC(N)=O)nc(N2CCOCC2)n1,-0.8
C[C@@H]1CN([C@H](C)CO)C(=O)Cc2cc(NC(=O)Nc3ccc(F)cc3)ccc2O[C@@H]1CN(C)S(=O)(=O)c1cccs1,2.0
C[C@@H]1CN([C@H](C)CO)C(=O)Cc2cc(NC(=O)Nc3ccc4c(c3)OCO4)ccc2O[C@H]1CN(C)C(=O)Nc1ccc(F)cc1,16.2
C[C@@H]1CN([C@H](C)CO)C(=O)Cc2cc(NC(=O)Nc3ccc4c(c3)OCO4)ccc2O[C@@H]1CN(C)C(=O)Nc1ccccc1,2.2
CN(C(=O)c1cc2nc(-c3ccco3)cc(C(F)(F)F)n2n1)C1CCCCC1,40.8
O=S(=O)(NCCOc1ccccc1)c1cccc2cccc(Cl)c12,15.7
C[C@@H]1CN([C@H](C)CO)C(=O)Cc2cc(NC(=O)CCCCCC(=O)Nc3ccccc3N)ccc2O[C@@H]1CN(C)Cc1ccc(C(F)(F)F)cc1,140.6*
Cc1ccc(S(=O)(=O)Nc2ccc3c(c2)C(=O)N([C@@H](C)CO)C[C@H](C)[C@@H](CN(C)S(=O)(=O)c2cccs2)O3)cc1,28.4
C[C@@H]1CN([C@@H](C)CO)C(=O)c2cccc(NC(=O)Nc3ccc(C(F)(F)F)cc3)c2O[C@H]1CN(C)C(=O)Nc1ccccc1,59.8
O=C(CSc1nnc(-c2ccco2)n1-c1cccc2ccccc12)Nc1ccc(C(=O)O)cc1,6.5
C[C@H]1CN([C@@H](C)CO)C(=O)c2cccc(NS(C)(=O)=O)c2O[C@@H]1CN(C)CC1CCCCC1,2.3
Cc1ccc(N(C(C)C(=O)Nc2cc(Cl)cc(Cl)c2)S(C)(=O)=O)cc1C (centres undefined),39.9
C[C@H](CO)N1C[C@H](C)[C@@H](CN(C)Cc2ccc(C(F)(F)F)cc2)Oc2ccc(NC(=O)Nc3ccc(F)cc3)cc2C1=O,119.4*
CC(C)c1ccc(NC(=O)CSc2nnc(-c3ccc(Br)cc3)n2C)cc1,-13.5
Cc1cc(=O)[nH]c(SCC(=O)N2CCCCC2)n1,-11.8
Cc1cc(I)ccc1NC(=O)Cn1nc(C)c([N+](=O)[O-])c1C,8.7
CC1(C)CC[C@]2(C(=O)O[C@@H]3O[C@H](CO[C@@H]4O[C@H](CO)[C@@H](O)[C@H](O)[C@H]4O)[C@@H](O)[C@H](O[C@@H]4O[C@H](CO)[C@@H](O)[C@H](O)[C@H]4O)[C@H]3O)CC[C@]3(C)C(=CCC4[C@@]5(C)CC[C@H](O)[C@@](C)(C(=O)O)C5CC[C@]43C)C2C1 (some centres undefined),-7.1
Cn1c(SCc2nc(-c3cccs3)no2)nnc1C1CCCCC1,-16.1
CCN(CC)C(=O)c1cnn(-c2ccccc2)c1NC(=O)c1ccco1,-4.5
Cc1ccccc1-c1nnc(SCC(=O)Nc2sc3c(c2C#N)CCCC3)n1C,16.5
C[C@@H]1CN([C@H](C)CO)C(=O)c2cc(NC(=O)CCC(F)(F)F)ccc2O[C@H]1CN(C)C(=O)Nc1ccccc1,15.0
O=C(CSc1nc(N2CCCCC2)nc(N2CCCCC2)n1)NC1CCCCC1,14.4
Cc1cc(=O)[nH]c(SCCOc2ccc(Br)cc2Cl)n1,-10.2
COc1ccc(NC(=O)Nc2cccc3c2O[C@H](CN(C)Cc2ccc(C(=O)O)cc2)[C@H](C)CN([C@H](C)CO)C3=O)cc1,2.1
C[C@H]1CN([C@@H](C)CO)C(=O)c2cccc(NC(=O)Nc3cccc4ccccc34)c2O[C@H]1CN(C)C(=O)Nc1cccc2ccccc12,13.3
C[C@@H]1CN([C@@H](C)CO)C(=O)c2cccc(NC(=O)Nc3ccc4c(c3)OCO4)c2O[C@H]1CN(C)C(=O)NC1CCCCC1,-0.8
CNC[C@H]1Oc2ccc(NC(=O)C3CC3)cc2C(=O)N([C@H](C)CO)C[C@@H]1C,6.0
C[C@@H]1CN([C@@H](C)CO)C(=O)c2cc(NC(=O)Cc3ccccc3)ccc2O[C@H]1CN(C)CC1CC1,-6.8
COc1ccc(S(=O)(=O)Nc2cccc3c2O[C@H](CN(C)S(=O)(=O)c2ccc(C)cc2)[C@H](C)CN([C@H](C)CO)C3=O)cc1,39.2
C[C@@H]1CN([C@@H](C)CO)C(=O)c2cc(NS(=O)(=O)c3cccs3)ccc2O[C@@H]1CN(C)Cc1ccc(C(=O)Nc2ccccc2N)cc1,111.3*
C[C@@H]1CN([C@@H](C)CO)C(=O)c2cc(NC(=O)Cc3cn(C)c4ccccc34)ccc2O[C@H]1CN(C)C(=O)NC1CCCCC1,0.0
CC(=O)Nc1cccc(NC(=O)c2cc(-c3cccnc3)nc3ccc(Br)cc23)c1,?
C[C@@H]1CN([C@@H](C)CO)C(=O)c2cccc(NC(=O)c3ccncc3)c2O[C@H]1CN(C)S(=O)(=O)c1ccc(Cl)cc1,1.3
C[C@@H]1CN([C@H](C)CO)C(=O)Cc2cc(NC(=O)Cc3ccccc3)ccc2O[C@H]1CN(C)C(=O)Nc1ccc(F)cc1,8.3
COc1cc(C(C)=O)ccc1OCC(O)Cn1nc(C)cc1C (centres undefined),10.2
C[C@H]1CN([C@@H](C)CO)C(=O)Cc2cc(NS(=O)(=O)c3ccc(Cl)cc3)ccc2O[C@@H]1CN(C)Cc1ccccc1,106.8*

# Structures listed so far that have an NH in an aromatic ring, in the order listed:
SMILES,NOMO-1 viab
Cc1cc(=O)[nH]c(SCC(=O)N2CCCCC2)n1,-11.8
Cc1cc(=O)[nH]c(SCCOc2ccc(Br)cc2Cl)n1,-10.2

# The list goes on:
SMILES,NOMO-1 viab
C[C@@H]1CCCCO[C@H](CN(C)C(=O)Nc2cccc3ccccc23)[C@@H](C)CN([C@H](C)CO)C(=O)c2cc(N(C)C)ccc2O1,73.0
Cc1nn(CC(O)COc2ccc3cc(Br)ccc3c2)c(C)c1Cl (centres undefined),11.0
C[C@H]1CN([C@@H](C)CO)C(=O)c2cccc(NS(C)(=O)=O)c2O[C@@H]1CN(C)Cc1ccc(Cl)c(Cl)c1,-6.5
O=C1NC(=S)N(S(=O)(=O)c2cccc3cccnc23)C1Cc1ccccc1 (centres undefined),-5.9
COc1ccc(Cl)c(Cn2c(NC3CCCCC3)nc3c2c(=O)n(C)c(=O)n3C)c1,16.8
Cc1ccc(S(=O)(=O)Nc2cccc3c2O[C@H](CN(C)CC2CCCCC2)[C@@H](C)CN([C@H](C)CO)C3=O)cc1,20.4
C[C@@H]1CN([C@H](C)CO)C(=O)c2cccc(NC(=O)CCCCCC(=O)Nc3ccccc3N)c2O[C@H]1CN(C)C(=O)Nc1ccccc1,18.6
CCOC(=O)Nc1ccc(OCc2nnc3c4ccccc4c(C)nn23)cc1,-1.6
C[C@@H]1CCCCO[C@@H](CN(C)Cc2ccc(Cl)c(Cl)c2)[C@@H](C)CN([C@H](C)CO)C(=O)c2cc(N(C)C)ccc2O1,48.3
Cc1noc(C)c1NC(=O)Nc1ccc2c(c1)C(=O)N([C@H](C)CO)C[C@H](C)[C@@H](CN(C)Cc1ccc(Cl)c(Cl)c1)O2,-4.0
Cc1noc(C)c1NC(=O)Nc1cccc2c1O[C@H](CN(C)C(=O)Nc1c(C)noc1C)[C@H](C)CN([C@H](C)CO)C2=O,-0.1
COc1ccc(NC(=O)N(C)C[C@@H]2Oc3ccc(NC(=O)Nc4ccccc4)cc3C(=O)N([C@@H](C)CO)C[C@H]2C)cc1,-3.4
Cc1noc(C)c1NC(=O)Nc1cccc2c1O[C@H](CN(C)C(=O)Nc1ccc(C(F)(F)F)cc1)[C@@H](C)CN([C@@H](C)CO)C2=O,8.1
COC(=O)c1ccccc1S(=O)(=O)NC(=O)c1ccccc1,-6.4
O=C(O)CCSc1nc2ccccc2n1C1CCCCC1,-5.7
Cc1ccc(S(=O)(=O)N(C)C[C@@H]2Oc3ccc(NC(=O)Cn4cnnn4)cc3CC(=O)N([C@H](C)CO)C[C@H]2C)cc1,-11.1
O=C(CC1(O)C(=O)N(Cc2cccc3ccccc23)c2ccccc21)c1ccccn1 (centres undefined),111.5*
C[C@H](CO)N1C[C@H](C)[C@H](CN(C)Cc2ccc(-c3ccccc3)cc2)Oc2c(NC(=O)c3cnccn3)cccc2C1=O,28.7
COc1ccc(S(=O)(=O)Nc2cccc3c2O[C@@H](CN(C)C(=O)Nc2c(C)noc2C)[C@H](C)CN([C@@H](C)CO)C3=O)cc1,7.0
Cc1ccc(C2=NC(C(F)(F)F)(C(F)(F)F)N=C3SCCN32)cc1,19.8
C[C@@H]1CN([C@H](C)CO)C(=O)Cc2cc(N(C)C)ccc2O[C@@H]1CN(C)S(=O)(=O)c1ccccc1,-13.6
C[C@H]1CN([C@@H](C)CO)C(=O)c2cccc(NC(=O)NC3CCCCC3)c2O[C@@H]1CN(C)Cc1ccc(Oc2ccccc2)cc1,55.2
C[C@@H]1CN([C@@H](C)CO)C(=O)c2cccc(NC(=O)CCCCCC(=O)Nc3ccccc3N)c2O[C@@H]1CN(C)Cc1ccc(C(F)(F)F)cc1,118.8*
C[C@H]1CN([C@@H](C)CO)C(=O)Cc2cc(NS(=O)(=O)c3cccs3)ccc2O[C@H]1CN(C)CC1CC1,19.0
COc1ccc(NC(=O)N(C)C[C@H]2Oc3c(NC(=O)c4nc5ccccc5s4)cccc3C(=O)N([C@@H](C)CO)C[C@H]2C)cc1,26.7
Cc1noc(C)c1S(=O)(=O)N(C)C[C@@H]1Oc2ccc(NS(=O)(=O)c3ccc(F)cc3)cc2C(=O)N([C@@H](C)CO)C[C@@H]1C,15.4
Cc1ccc(S(=O)(=O)N(C)C[C@@H]2Oc3ccc(NC(=O)Nc4ccccc4)cc3C(=O)N([C@H](C)CO)C[C@@H]2C)cc1,70.9
COc1c(O[C@@H]2O[C@H](CO[C@H]3OC[C@](O)(CO)[C@H]3O)[C@@H](O)[C@H](O)[C@H]2O)cc2occ(-c3ccc(O)cc3)c(=O)c2c1O,-3.7
Cc1ccc(NC(=O)COc2ccc(Br)cc2Cl)c([N+](=O)[O-])c1,-6.4
COc1ccc(C)cc1NC(=O)CN(C1CCCCC1)S(=O)(=O)c1ccc(Cl)cc1,40.8
N#Cc1c(NC(=O)CSc2nnc(N)s2)sc2c1CCCC2,5.2
C[C@@H]1CN([C@@H](C)CO)C(=O)c2cccc(NC(=O)c3cnccn3)c2O[C@H]1CN(C)Cc1ccc(Oc2ccccc2)cc1,?
C[C@@H]1CN([C@H](C)CO)C(=O)c2cccc(NS(=O)(=O)c3ccc(F)cc3)c2O[C@@H]1CN(C)Cc1ccc(Cl)c(Cl)c1,54.0
COc1ccc(-c2nnc3c4ccccc4c(C)nn23)cc1S(N)(=O)=O,34.3
CCc1cccc(C)c1NC(=O)CSc1nnc(-c2ccncc2)n1-c1ccc(C)cc1,7.5
CC1=CC(CC2(C)OC2COc2c3occc3cc3ccc(=O)oc23)OC1=O (centres undefined),-14.6
C[C@H](CO)N1C[C@H](C)[C@H](CN(C)S(=O)(=O)c2ccccc2)Oc2ccc(NC(=O)Nc3ccc(F)cc3)cc2C1=O,19.6
O=C(Nc1ccccc1)Nc1csc(-c2ccc(C(F)(F)F)cc2)n1,12.0
O=C(CSc1nc2ccccc2c(=O)[nH]1)c1ccc(-c2ccccc2)cc1,47.7
Cc1ccc2nc(SCC(=O)NCc3ccccc3)[nH]c2c1,12.3
C=C[C@@](C)(O)CC/C=C(\C)C(=O)O[C@@H]1[C@@H]2O[C@]2(C)[C@H]2[C@H](O[C@@H]3O[C@H](CO)[C@@H](O)[C@H](O)[C@H]3O)OC=C[C@@]12O,-1.1
C[C@@H]1CN([C@@H](C)CO)C(=O)Cc2cc(NS(=O)(=O)c3cccs3)ccc2O[C@@H]1CN(C)Cc1ccc(Oc2ccccc2)cc1,97.0*
CC(=O)CSc1nc(N(C)C)nc(N(C)C)n1,26.5
C[C@@H]1CN([C@H](C)CO)C(=O)Cc2cc(NS(=O)(=O)c3cccs3)ccc2O[C@H]1CN(C)Cc1ccc(Cl)c(Cl)c1,37.7
C[C@H]1CN([C@@H](C)CO)C(=O)Cc2cc(NC(=O)Cn3cnnn3)ccc2O[C@@H]1CN(C)Cc1ccc2c(c1)OCO2,-2.9
CCn1c(SCC(=O)Nc2ccc(Br)cc2F)nnc1-c1ccccc1Cl,3.6
Cc1cc(C)nc(Nc2n[nH]c(COc3ccccc3)n2)n1,40.2
C[C@H](CO)N1C[C@H](C)[C@@H](CN(C)Cc2ccc(Oc3ccccc3)cc2)Oc2c(NS(=O)(=O)c3cccs3)cccc2C1=O,29.9

# A different layout for some results above:
molecule	NOMO-1 viab
O=C(Nc1ccccc1)Nc1csc(-c2ccc(C(F)(F)F)cc2)n1	12.0
O=C(CSc1nc2ccccc2c(=O)[nH]1)c1ccc(-c2ccccc2)cc1	47.7
Cc1ccc2nc(SCC(=O)NCc3ccccc3)[nH]c2c1	12.3
C=C[C@@](C)(O)CC/C=C(\C)C(=O)O[C@@H]1[C@@H]2O[C@]2(C)[C@H]2[C@H](O[C@@H]3O[C@H](CO)[C@@H](O)[C@H](O)[C@H]3O)OC=C[C@@]12O	-1.1
C[C@@H]1CN([C@@H](C)CO)C(=O)Cc2cc(NS(=O)(=O)c3cccs3)ccc2O[C@@H]1CN(C)Cc1ccc(Oc2ccccc2)cc1	97.0*
CC(=O)CSc1nc(N(C)C)nc(N(C)C)n1	26.5
C[C@@H]1CN([C@H](C)CO)C(=O)Cc2cc(NS(=O)(=O)c3cccs3)ccc2O[C@H]1CN(C)Cc1ccc(Cl)c(Cl)c1	37.7

# More results
SMILES,NOMO-1 viab
CCOC(=O)c1c(CNc2cccc(C(N)=O)c2)n(C)c2cc(Br)c(OC(C)=O)cc12,56.4
CCn1c(SCC(=O)Nc2ccc(Cl)cc2C)nnc1-c1ccc(Cl)cc1,14.2
COc1ccc(I)cc1S(=O)(=O)NCc1ccccn1,-2.6
Cc1ccc(NC(=O)CSc2nc3ccccc3o2)cc1Cl,27.7
C[C@@H]1CN([C@@H](C)CO)C(=O)Cc2cc(NC(=O)Nc3ccccc3)ccc2O[C@@H]1CN(C)S(=O)(=O)c1cccs1,35.3
C[C@H]1CN([C@@H](C)CO)C(=O)Cc2cc(N(C)C)ccc2O[C@H]1CN(C)Cc1ccc(C(F)(F)F)cc1,8.9
Cc1c(Cl)cccc1NC(=O)CCC(=O)O,15.8

# From PubChem BioAssay
